PKD1 kinase inh: blocks activity of human protein kinase D1. AID 797. Q15139. 200,000 tested, 0.056% active. PKD1 kinase fluorescence polarization assay. inhibition, %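 (about 10 µM by stock and volumes)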;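 active means inhibition of 50% or more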;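 further: controls were vehicle for no effect and a reference inhibitor for full effect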
HSV replic up: HSV replication enhancement | HSV replication augmentation in cells, fold increase | AID 1956 | maximum fold increase | 220,000 tested, 0.005% active;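 active means peak rise of 1.5-fold or more in the series; tested in PC3 cells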;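 further: first round at 10 µM; read as green reporter fluorescence; hits show the peak of a series up to 25 µM; 1 = signal of infected wells without compound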
GALR2 agonist: GALR2 (human) receptor agonism; GALR2-expressing cells, agonist activation read-out; activation, %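 (tested at 5 µM)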; 140,000 tested, 0.48% active; AID 803;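 active means above mean plus 3 SD of all compounds, about 5% in these data, not always enough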;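 further: 0% = vehicle buffer wells and 100% = reference agonist at full effect; tested in CHO reporter cells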
Target sequence (O43603 whole entry, looked up): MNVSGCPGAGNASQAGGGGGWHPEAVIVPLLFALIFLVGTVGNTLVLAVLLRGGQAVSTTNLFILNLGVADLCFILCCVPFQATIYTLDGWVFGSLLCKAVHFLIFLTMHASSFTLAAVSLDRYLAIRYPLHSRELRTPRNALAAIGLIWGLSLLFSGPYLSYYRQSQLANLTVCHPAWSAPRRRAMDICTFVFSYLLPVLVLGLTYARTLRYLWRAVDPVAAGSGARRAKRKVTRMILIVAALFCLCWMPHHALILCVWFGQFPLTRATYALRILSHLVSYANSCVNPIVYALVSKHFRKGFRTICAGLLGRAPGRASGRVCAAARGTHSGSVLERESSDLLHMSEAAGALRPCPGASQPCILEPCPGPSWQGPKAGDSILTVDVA
RGS16-Gao: modulates binding between human RGS16 and Galphao. O15492+P09471. bead-based flow cytometry RGS16-Galphao binding, fluorescence; actives lie on both sides. binding response (% of control), % at 10 µM. 220,000 tested, 0.38% active. AID 1441;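 active means below 25% or above 175%, edge rows of some plates excepted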;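 further: Galphao activated by GDP with aluminum fluoride before binding; 100% = wells without compound and 0% = beads without RGS; some results beyond the cut were filed as inactive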
Target sequence (O15492 whole entry, looked up): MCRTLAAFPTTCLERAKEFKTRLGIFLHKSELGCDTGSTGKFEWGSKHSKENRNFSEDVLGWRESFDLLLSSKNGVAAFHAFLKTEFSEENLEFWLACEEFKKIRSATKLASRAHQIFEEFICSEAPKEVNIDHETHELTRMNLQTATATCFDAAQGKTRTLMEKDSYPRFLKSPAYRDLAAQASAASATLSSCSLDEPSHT
Target sequence (P09471 whole entry, looked up): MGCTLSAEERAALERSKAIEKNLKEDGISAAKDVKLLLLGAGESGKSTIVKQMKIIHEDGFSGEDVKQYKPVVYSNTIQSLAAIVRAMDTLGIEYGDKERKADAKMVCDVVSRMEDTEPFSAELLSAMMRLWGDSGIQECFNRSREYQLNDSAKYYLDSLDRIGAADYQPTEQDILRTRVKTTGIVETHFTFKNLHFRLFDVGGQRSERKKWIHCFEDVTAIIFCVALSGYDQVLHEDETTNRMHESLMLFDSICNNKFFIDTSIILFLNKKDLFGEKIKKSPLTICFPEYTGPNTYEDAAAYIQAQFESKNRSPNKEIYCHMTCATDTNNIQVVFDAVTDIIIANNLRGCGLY
Insulin prom inh: TRM-6 insulin promoter activity inhibition; TRM-6 cells (human fetal islet line), insulin promoter-eGFP reporter, imaging; reporter expression induced with tamoxifen; inhibition, % at 2 µM; 130,000 tested, 0.9% active;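 active means inhibition above the mean plus 3 SD, with well images judged a real hit on visual review, cut at about 60% in these data, passing the limit was not always enough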
Insulin prom inh cell count: second read-out of Insulin prom inh, no call of its own (marks repeat the call); normalized cell count, %; measured here: cell count, toxicity; reference of the scale not given here;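 cells exposed to compound for 48 h; stained nuclei by imaging scaled within each plate; lower means fewer cells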
HSV replic up primary fold: second read-out of HSV replic up, no call of its own (marks repeat the call); fold increase; compound at 10 µM; measured here: primary screen fold increase 10 uM; tested in PC3 cells;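 GFP signal in the first replicate; 1 = infected wells without compound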
Active calls of the source: *; i = inactive; . = not tested or not shown. Hits appear at their usual frequency. Share with any hit: about 1.2%.

SMILES,Insulin prom inh cell count,GALR2 agonist,Insulin prom inh,PKD1 kinase inh,HSV replic up primary fold,RGS16-Gao,HSV replic up
O=S(=O)(c1cnc[nH]1)N1CCN(c2ccc(Cl)cc2)CC1,.,-2.0,.,-1.1,0.95,93.9,i
CCC(C)(C)C1CCC2(CC1)NC(=O)N(CC(=O)Nc1nc(-c3ccc(C)cc3)cs1)C2=O (stereo not drawn),.,-1.1,.,4.3,0.87,104.3,i
C=CCn1c(-c2ccc(Cl)cc2)cnc1SC(C)C(=O)NC(N)=O (stereo not drawn),94.9,.,-357.1,-0.7,0.95,101.9,i
COc1ccc(CC(=O)N2CCN(S(=O)(=O)c3cccs3)CC2)cc1OC,.,.,.,.,1.2,108.6,i
OCCSc1nc(-c2ccccc2)nc2ccc(F)cc12,.,.,.,-3.8,0.83,103.4,i
CC(C)OCC(O)CS(=O)Cc1ccccc1 (stereo not drawn),106.2,-3.1,0.0,-11.0,0.62,97.2,i
O=C(Cc1ccccc1)N1CCN(C(=O)c2ccco2)CC1,46.7,-1.6,-309.3,-4.3,0.81,107.7,i
Cc1cnc(C(=O)Nc2cccc(S(=O)(=O)N(C)C)c2)cn1,.,-0.5,.,-12.1,1.03,97.4,i
COC(=O)CSc1nnc(-c2ccco2)o1,.,-0.6,.,2.0,0.9,97.7,i
CN(C)c1nc(N)nc(N(c2ccccc2)c2ccccc2)n1,.,-1.5,.,3.2,1.23,98.4,i

Single records (already shown). Order of values: Insulin prom inh cell count | GALR2 agonist | Insulin prom inh | PKD1 kinase inh | HSV replic up primary fold | RGS16-Gao | HSV replic up
COc1ccc(CC(=O)N2CCN(S(=O)(=O)c3cccs3)CC2)cc1OC is listed with . | . | . | . | 1.2 | 108.6 | i
CCC(C)(C)C1CCC2(CC1)NC(=O)N(CC(=O)Nc1nc(-c3ccc(C)cc3)cs1)C2=O (stereo not drawn) is listed with . | -1.1 | . | 4.3 | 0.87 | 104.3 | i
OCCSc1nc(-c2ccccc2)nc2ccc(F)cc12 is listed with . | . | . | -3.8 | 0.83 | 103.4 | i

Further records
SMILES,Insulin prom inh cell count,GALR2 agonist,Insulin prom inh,PKD1 kinase inh,HSV replic up primary fold,RGS16-Gao,HSV replic up
Cc1ccc(NC(=O)NCCN2C(=O)C3C4C=CC(C4)C3C2=O)cc1 (stereo not drawn),.,-2.4,.,-7.6,1.18,103.3,i
COC1=C(OC)C(=O)C(CCCCCCCCCCO)=C(C)C1=O,.,.,.,.,0.67,101.9,i
Cc1ccccc1N1CC(c2nc3ccccc3[nH]2)CC1=O (stereo not drawn),212.5,-0.3,26.3,-3.0,0.93,88.2,i
NC1=NC2(CCCC2)n2c(nc3ccccc32)N1,142.4,.,30.0,7.7,1,97.2,i
O=C(Cn1c(O)c(N=NC(=O)c2ccncc2)c2ccccc21)Nc1ccccc1,.,.,.,.,0.9,102.1,i
O=C(O)C1CCN(Cc2cnn(-c3ccccc3)c2-n2cccc2)CC1,104.4,-3.5,44.4,0.8,0.98,97.7,i
CCN(Cc1ccccc1)C(c1cc2cc(C)ccc2[nH]c1=O)c1nnnn1CCOC (stereo not drawn),99.6,-1.3,-31.2,2.8,1.03,86.9,i
CCOc1ccccc1N1CCN(S(=O)(=O)c2cc(C)ccc2OC)CC1,95.6,.,-70.4,0.1,0.93,95.5,i
CCOc1cc(NC(=S)Nc2ccccc2)c(OCC)cc1NC(=O)c1ccccc1,75.3,-2.2,-66.7,-4.7,0.93,91.8,i
Cn1cc(Br)c(C(=O)N/N=C/c2cccc(OC3CSC3)c2)n1,99.8,-0.5,16.7,1.9,0.7,76.1,i

(cont.)
SMILES,Insulin prom inh cell count,GALR2 agonist,Insulin prom inh,PKD1 kinase inh,HSV replic up primary fold,RGS16-Gao,HSV replic up
COC(=O)c1cc2c(C)[nH]c(C)c2cc(C(=O)OC)c1=O,70.5,-1.2,15.4,-10.1,1.01,100.5,i
Cn1cc(S(=O)(=O)Nc2ccc(Br)cc2F)c(=O)n(C)c1=O,.,-5.5,.,3.6,0.97,109.0,i
CCOC(=O)CNc1nnc(SCC(=O)OCC)[nH]c1=O,91.1,-1.2,-9.4,-6.3,1.08,96.0,i
CC(C(=O)NCC1CCCCC1)N1CCN(S(=O)(=O)c2ccccc2F)CC1 (stereo not drawn),65.3,.,17.6,3.5,0.95,105.1,i
COc1ccc(S(=O)(=O)N2CCC(C(=O)OCC(=O)c3ccccc3)CC2)cc1[N+](=O)[O-],152.2,-0.8,-25.0,-14.4,0.91,107.9,i
COc1ccccc1OCCNC(=O)Nc1ccc(Br)cc1,.,.,.,5.8,1.05,98.0,i
C=CCn1nnnc1SCC(=O)Nc1cccc(OC)c1,.,0.4,.,-15.2,1.15,113.7,i
COC(=O)c1c(C(=O)OC)c(-c2ccc(Cl)c(Cl)c2)n2c1CCC2,79.1,-1.4,13.0,-9.8,1.12,102.0,i
Cc1cc(C)c2cc(C)c(SCC(=O)NCc3ccco3)nc2c1,.,.,.,7.2,0.98,105.2,i
N=c1ccn(CC(=O)c2ccc(-c3ccccc3)cc2)cc1,.,.,.,-5.4,0.95,117.5,i

Additional structures follow:
SMILES,Insulin prom inh cell count,GALR2 agonist,Insulin prom inh,PKD1 kinase inh,HSV replic up primary fold,RGS16-Gao,HSV replic up
Cc1ccccc1CN1CCN(CC(=O)NCc2ccccc2)C1=O,65.8,-0.6,-270.0,-5.3,1.44,97.2,i
Cc1ccc(-c2nn[nH]n2)o1,.,-0.2,.,-16.4,0.97,104.9,i
Cc1ccc(-c2nnc(N(C)C(=O)c3cccnc3)s2)cn1,138.0,-3.1,31.4,0.4,1.03,73.0,i
O=C(Nc1ccc(N2CCOCC2)c(Cl)c1)c1ccc(Cl)cc1,113.3,.,20.0,1.8,0.82,100.0,i
COc1ccc2[nH]c3c(=O)n(CCCCCC(=O)NCCC(C)C)c(=S)[nH]c3c2c1,124.4,.,-85.7,3.3,0.94,104.1,i
Cc1[nH]n(-c2ccccc2)c(=O)c1C(c1ccc(O)c([N+](=O)[O-])c1)c1c(C)[nH]n(-c2ccccc2)c1=O,49.8*,-0.8,77.3*,-2.4,1.1,.,i
O=C(NCC1CCCO1)C(=O)NCC(c1ccco1)N1CCN(c2ccccc2)CC1 (stereo not drawn),113.5,-0.1,3.5,0.7,0.95,98.6,i
CC(C)NC(=O)COC(=O)c1cncc(Br)c1,42.2,.,-11.1,-1.7,0.89,94.3,i
Cc1ccc(C2NC(C(=O)O)CS2)cc1 (stereo not drawn),85.3,.,-7.1,1.3,1.08,108.5,i
CC1=C(C(=O)Nc2ccc(C)cc2C)C(c2ccc(C)o2)NC(=O)N1 (stereo not drawn),96.3,-1.1,31.4,5.7,0.92,101.1,i

Carrying on.
SMILES,Insulin prom inh cell count,GALR2 agonist,Insulin prom inh,PKD1 kinase inh,HSV replic up primary fold,RGS16-Gao,HSV replic up
CC(C)CN(CCNC(=O)CC1Oc2ccccc2NC1=O)CC(C)C (stereo not drawn),.,-1.2,.,-5.2,0.88,103.8,i
CC1=NC(C)(C)Cc2cc(C)c(C)cc21,.,.,.,1.7,0.93,152.7,i
CC(C)CCNC(=O)c1cc(S(=O)(=O)N2CCCCC2)ccc1N1CCOCC1,.,.,.,.,0.86,93.9,i
O=C(N/N=C/c1ccc[nH]1)c1cc(-c2cccs2)nc2ccccc12,102.8,.,31.6,-9.5,0.91,98.1,i
CC(C)OC(=O)[C@H]1[C@H](c2ccc(Cl)cc2)[C@@](C#N)(C(N)=O)[C@@H]2C=CC(C(N)=O)=CN21,163.2,-0.5,-40.0,0.2,1.05,102.4,i
COc1ccccc1/C=N/NC(=O)C(=O)Nc1ccccc1OC(F)(F)C(F)F,67.6,0.4,-45.5,0.1,0.91,33.6,i
COc1ccc(C2Nc3ccccc3C(=O)N2O)cc1OC (stereo not drawn),55.7,0.1,36.4,-11.6,.,99.7,.
CCCC(=O)Nc1cc(C(=O)O)ccc1S(=O)(=O)c1ccc(C)cc1,112.9,-1.7,38.9,23.8,1.01,99.6,i
O=C(C1CC1)N1CCN(c2nc3ccccc3s2)CC1,132.0,-0.8,-3.9,-0.7,0.88,103.8,i
COCCCNS(=O)(=O)c1ccc2c3c(cccc13)C(=O)S2,113.8,-1.7,-215.4,-6.2,0.93,101.1,i

Looked up one by one from the list above, 6 records:
SMILES,Insulin prom inh cell count,GALR2 agonist,Insulin prom inh,PKD1 kinase inh,HSV replic up primary fold,RGS16-Gao,HSV replic up
COc1ccc(C2Nc3ccccc3C(=O)N2O)cc1OC (stereo not drawn),55.7,0.1,36.4,-11.6,.,99.7,.
CC1=NC(C)(C)Cc2cc(C)c(C)cc21,.,.,.,1.7,0.93,152.7,i
COc1ccccc1/C=N/NC(=O)C(=O)Nc1ccccc1OC(F)(F)C(F)F,67.6,0.4,-45.5,0.1,0.91,33.6,i
O=C(N/N=C/c1ccc[nH]1)c1cc(-c2cccs2)nc2ccccc12,102.8,.,31.6,-9.5,0.91,98.1,i
CC(C)CCNC(=O)c1cc(S(=O)(=O)N2CCCCC2)ccc1N1CCOCC1,.,.,.,.,0.86,93.9,i
CC(C)CN(CCNC(=O)CC1Oc2ccccc2NC1=O)CC(C)C (stereo not drawn),.,-1.2,.,-5.2,0.88,103.8,i

More compounds follow.
SMILES,Insulin prom inh cell count,GALR2 agonist,Insulin prom inh,PKD1 kinase inh,HSV replic up primary fold,RGS16-Gao,HSV replic up
CCOC(=O)C1(CC2CCCCO2)CCN(Cc2ccc(OC)cc2F)CC1 (stereo not drawn),.,.,.,-5.1,0.94,105.7,i
O=c1oc2ccccc2c(N2CCCCC2)c1[N+](=O)[O-],122.7,-1.6,-28.0,-9.2,0.89,103.3,i
Cc1cc(NC(=O)C(C)Oc2ccc(Cl)cc2Cl)n(-c2ccccc2)n1 (stereo not drawn),128.7,-1.6,-133.3,-3.0,0.94,97.8,i
CCCOc1ccc(N2CC(C(=O)Nc3ccccc3OC)CC2=O)cc1 (stereo not drawn),.,-3.0,.,-6.2,1.21,106.0,i
Cc1ccc(C(=O)OCC(=O)c2cc(C)n(CC3CCCO3)c2C)cc1 (stereo not drawn),.,.,.,-6.5,1,99.6,i
Cc1cc(Br)cc(C)c1NC(=O)c1ccccc1[N+](=O)[O-],65.7,-1.6,6.2,3.0,0.96,100.5,i
CC1=C(C(=O)N2CCOCC2)C(c2cc(C)cs2)NC(=O)N1 (stereo not drawn),93.2,-1.9,-9.6,-3.3,1.09,76.7,i
O=C(N(c1ccccc1)c1ccccc1)n1ccnc1,158.4,-0.7,15.6,-10.1,1.05,102.8,i
CCOC(=O)C1=C(c2ccccc2)N=C2SCC(=O)N2C1c1ccc(OCC)c(OCC)c1 (stereo not drawn),118.7,-0.6,34.5,-7.5,0.97,107.4,i
C=CCn1c(CSc2nc3ccccc3s2)nnc1SCC(=O)NCc1ccccc1,103.8,-0.8,-15.4,-0.9,0.91,107.5,i

More entries follow:
SMILES,Insulin prom inh cell count,GALR2 agonist,Insulin prom inh,PKD1 kinase inh,HSV replic up primary fold,RGS16-Gao,HSV replic up
O=C(CSc1nnc(-c2ccccc2Cl)o1)Nc1ccc2c(c1)OCCO2,84.6,-0.5,19.1,-3.7,0.95,103.0,i
CCOc1cc(N2CCOCC2)c(OCC)cc1NC(=O)Cc1ccccc1,.,.,.,.,0.77,101.4,i
CCCC(C)NC(=O)C1CCN(S(=O)(=O)c2ccccc2)CC1 (stereo not drawn),101.2,-1.7,-27.6,-4.0,0.97,107.2,i
COc1ccc(CNc2ccc3cn[nH]c3c2)c(OC)c1OC,123.5,-2.5,31.0,-5.0,0.87,97.6,i
Cc1cccc(CS(=O)(=O)Cc2ccc(C(=O)NCc3cccs3)o2)c1,146.3,.,28.6,2.6,0.95,97.2,i
O=C(CN1CCN(Cc2ccccc2)CC1)c1c[nH]c2ccccc12,82.5,-1.0,46.9,-4.0,0.93,111.9,i
CCC(CC)NC(=O)c1n[nH]c(=O)c2ccccc12,.,-2.0,.,-6.7,0.99,111.2,i
Cc1cc(Cl)ccc1OCCCC(=O)NC1CCN(C)CC1,.,-1.7,.,-0.2,0.94,96.9,i
O=S1(=O)NC(=NCc2ccccc2)c2ccccc21,131.2,-2.3,-6.5,-0.4,1.02,102.2,i

Source: PubChem
